Source: PubChem BioAssay (several laboratories)
eIF4H inh – inhibitors of RNA binding by human eIF4H; Q15056; eIF4H fluorescence polarization binding assay; inhibition, % at 35 µM; AID 2012; actives 0.94% (n = 290,000);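 active = 50% or more with normal probe brightness, or confirmed in later tests; inconclusive = above 50% with abnormal brightness, or retests that disagree; inactive = below 50% or failed in later tests; about a fifth of its hits are not listed in these tables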;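 also: calls also rest on retests at 20 µM and on dose response follow-up; 0% = protein and probe with vehicle and 100% = probe without protein; strong numbers were not always called active; many hits fall short of the cut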
MT1-MMP act inh – inhibitors of human MT1-MMP activation; P50281; HT1080 RFP-PRO-GFP cells, GFP/RFP ratio fluorescence, overnight; percent of plate control window, DMSO zero; GFP/RFP ratio change, % at 20 µM; actives 0.061% (n = 360,000); AID 651647;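 active = GFP/RFP ratio change of at least 30% with cell ATP level not reduced by more than half and red fluorescence within 50% of control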; also: strong numbers were not always called active
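Assay system: HT1080 RFP-PRO-GFP cells. Benchmarks: DMSO vehicle wells and RFP-L50D-GFP reporter cell wells. Times: overnight cell settling, then overnight compound exposure, 37 °C, 5% CO2. Compound: 20 µM single dose, 1% DMSO. Read-out basis: GFP/RFP fluorescence ratio.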
HIV Env fusion – inhibitors of HIV Env-mediated cell fusion | HeLa-JRFL Env/CEM21 cell fusion, luciferase | inhibition, % at 12.3 µM | actives 1.1% (n = 360,000);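 active = mean replicate inhibition score of at least 50 and every replicate individually at or above 50; inconclusive = only one of the two criteria met; inactive = mean below 50 and not all replicates reaching 50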;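 also: 0% = plate neutral controls and 100% = maraviroc near 300 nM; one replicate is shown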
Yeast UUG start – alters start codon recognition fidelity in yeast | actives 0.13% (n = 350,000) | S. cerevisiae UUG-firefly luciferase reporter, luminescence/redox ratio | AID 602363 | activity score, % at 18.7 µM;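 active = replicate mean at a twofold rise or more, about +100% in these data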;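 also: firefly luciferase made from a UUG start codon reports start codon fidelity; reporter light over untreated wells divided by growth signal over untreated wells; some hits fall short of that in this replicate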
CSC inhib – blocks cancer stem cells | inhibition, % at 7.5 µM | cancer stem cell-like cells viability, luminescence | AID 2717 | actives 1.1% (n = 300,000);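 active = mean at 75% or more and at least half the replicates too; inconclusive = mean and replicates disagree; tested in HMLE shEcad cells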;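 also: 0% = median of negative and 100% = median of positive control wells; the first replicate is given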
Rce1 inh – yeast Ras-converting enzyme inhibition. Q03530. AID 2563. actives 0.27% (n = 290,000). calls only. yeast membranes, quenched prenylated peptide cleavage fluorescence;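 active = fall in fluorescence gain of 50% or more versus controls, with final raw signal at or below 3038400; inconclusive = same 50% fall but final raw signal above 3038400; inactive = fall in fluorescence gain under 50%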;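 also: plate controls were neutral control wells for no effect and wells lacking membranes for full effect; tested at 10 µM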
Target sequence (Q03530 whole entry, looked up): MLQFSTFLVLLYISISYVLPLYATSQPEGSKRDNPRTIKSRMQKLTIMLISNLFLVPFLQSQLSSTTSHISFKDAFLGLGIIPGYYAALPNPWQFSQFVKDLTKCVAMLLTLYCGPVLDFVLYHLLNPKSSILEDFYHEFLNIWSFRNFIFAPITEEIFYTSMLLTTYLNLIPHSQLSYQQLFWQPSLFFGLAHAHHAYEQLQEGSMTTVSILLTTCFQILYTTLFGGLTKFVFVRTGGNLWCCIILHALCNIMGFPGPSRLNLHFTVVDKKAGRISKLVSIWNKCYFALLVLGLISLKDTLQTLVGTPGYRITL
PABP polyA inh – PABP-poly(A) binding inhibition; inhibition, % at 35 µM; actives 1% (n = 290,000); PABP-poly(A) RNA binding, fluorescence polarization;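 active = 50% or more with normal probe brightness, or confirmed in later tests; inconclusive = above 50% with abnormal brightness, or retests that disagree; inactive = below 50% or failed in later tests; about a fifth of its hits are not listed in these tables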;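 also: calls also rest on retests at 20 µM and on dose response follow-up; controls were probe without protein and protein plus probe with vehicle; some compounds called inactive have numbers as strong as hits; many hits fall short of the cut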
eIF4H inh retest – further read-out of eIF4H inh, marked with its call; inhibition, %; compound at 20 µM; confirmation average;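 mean of two retest wells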
PABP polyA inh retest – further read-out of PABP polyA inh, marked with its call; inhibition, %; compound at 20 µM; confirmation repeats;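 mean of two retest wells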
MT1-MMP act inh RFP – further read-out of MT1-MMP act inh, marked with its call; RFP signal change, %; measured here: RFP expression control read;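 0 = vehicle wells; hits needed this value within 50% of zero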
Active calls of the source: *; i = inactive; ? = inconclusive; . = not tested or not shown; & = joins results of further samples.

SMILES	eIF4H inh	MT1-MMP act inh	MT1-MMP act inh RFP	HIV Env fusion	Yeast UUG start	CSC inhib	Rce1 inh	PABP polyA inh	others
Cc1nc(Nc2ccc(S(N)(=O)=O)cc2)oc1C	-3	4	7	.	-1	-12	i	-3
Cc1ccc(-c2c(C(=O)N/N=C/C3CC=CCC3)nnn2-c2nonc2N)cc1 (configuration not stated)	-3	3	7	6	-18	-12	i	-3
O=C(Nc1ccc(F)cc1)c1ccc2c(=O)n3c(nc2c1)CCCCC3	-3	-2	-8	-5	-2	.	i	-12
c1ccc(-c2nnc(N3CCN(c4ccccn4)CC3)c3ccccc23)cc1	16	3	-7	37	.	-1	i	-3
COC(=O)c1ccccc1NC(=O)c1noc2c1CCC2	83*	-4	2	7	-6	-5	i	56*
CCN(CC)c1ccc(NC(=O)CCCOc2cccc(C)c2)cc1	0	-2	0	0	.	.	i	-4
C=CCN(C(=O)CSc1nc2ccsc2c(=O)n1Cc1ccc(C(=O)O)cc1)c1ccccc1	.	3	3	-20	12	.	.	.
COCc1nc2sc(C)c(C)c2c(=O)[nH]1	3	-6	-1	.	-10	-15	i	4
O=C(Cc1ccc(Cl)cc1)NCCCn1ccnc1	-9	-11	-4	-3	-5	-19	i	-8
O=C(NCc1ccccc1)C(=O)NCC1OCCN1S(=O)(=O)c1cccs1 (configuration not stated)	-4	4	2	1	-16	-12	i	-1
CCOc1ccc(C2=Nn3c(nnc3-c3cccnc3)SC2)cc1	2	10	0	?	-8	3	i	1
CCCC(=O)Nc1ccc(C(=O)n2nnc3ccccc32)cc1	1	-3	-3	-61	-14	-10	i	0
CC(C)CC(NC(=O)C1CCC(=O)N1C(=O)OCc1ccccc1)C(=O)NC(Cc1ccccc1)C(N)=O (configuration not stated)	3	-3	-2	15	9	-10	i	5
CC1(C)Cc2nc3sc4c(=O)n(Cc5ccccc5)cnc4c3cc2CS1	4	8	-11	.	-4	41	i	6
CN(C(=O)CN1C(=O)S/C(=C\c2ccccc2)C1=O)C1CCS(=O)(=O)C1 (configuration not stated)	-6	-2	-2	0	-6	-8	i	-1
Cc1ccccc1NC(=O)c1ccc2snnc2c1	1	22	1	9	-8	-2	i	20
CCc1nnc(NC(=O)Cn2nnc(-c3ccccc3F)n2)s1	-9	3	6	.	-21	-11	i	-2
CCN(Cc1ccccc1)S(=O)(=O)c1cc(C(=O)NCC2CCCCC2)ccc1OC	-8	-7	-19	.	.	12	i	3
O=C(CN1C(=O)NC2(CCCC2)C1=O)N1CCN(c2cccc(C(F)(F)F)c2)CC1	.	2	-7	-11	.	8	i	.
O=S(=O)(c1cccs1)N1CCC(Cc2ccccc2)CC1	2	-5	-3	.	-10	-16	i	-5
CCOc1ccccc1N1C(=O)CC(Sc2nccc(C)n2)C1=O (configuration not stated)	-4	5	6	3	7	4	i	1
O=C(CSc1nnc(NC(=O)c2ccco2)s1)Nc1ccccc1Cl	-4	1	3	-1	.	-5	i	4
Cc1cc(C)c(S(=O)(=O)N2CCc3ccccc32)c(C)c1	-6	1	-3	28	-14	-9	i	4
Cn1c(CN2CCN(c3ccccc3NS(C)(=O)=O)CC2)nc2ccccc21	-4	-1	-4	-5	-8	11	i	0
COC(=O)c1ccccc1NC(=O)c1ccc(-c2ccc(Br)cc2)o1	-3	-2	0	.	-7	6	i	2
Cc1cc(C)n2nc(SCCC(=O)NCc3ccccc3)nc2n1	-8	3	1	11	-21	.	i	-7
CC(C)NS(=O)(=O)c1ccc(CCC(=O)Nc2ccc3c(c2)OCO3)cc1	2	6	2	.	-10	10	i	-1
CCOC(=O)C1=C(O)/C(=C\c2cccs2)N=C1C	-7	6	9	.	.	-1	i	3
CC(=O)Nc1ccc2oc(-c3cc(F)c(F)cc3Cl)nc2c1	-5	7	-1	-90	-27	2	i	-7
O=C(CNC(=O)OCc1ccccc1)Oc1ccc2ccc(=O)oc2c1	3	-1	0	5	-21	-10	i	-4
CCOc1ccccc1N1CCN(Cc2ccc(OC)c(OC)c2)CC1	-2	-2	3	17	3	7	.	-1
CC(C)CN(C(=O)COC(=O)c1ccc2c(c1)NC(=O)CS2)C1CCS(=O)(=O)C1 (configuration not stated)	4	-2	5	.	11	-7	i	-7
Cc1cccc(Nc2nc(N)c([N+](=O)[O-])c(N3CC(C)CC(C)C3)n2)c1 (configuration not stated)	9	2	-27	.	.	105*	i	2
O=C(N/N=C/c1ccccc1[N+](=O)[O-])c1cnccn1	-9	4	2	8	.	-19	i	-3
Cc1cc(C)n(CCOC(=O)c2sc3ccccc3c2Cl)n1	3	1	1	.	-8	-10	i	-4
CCOc1ccc(S(=O)(=O)N2CCC(C(N)=O)CC2)c2ccccc12	13	-1	-3	16	1	-8	.	-10
COc1ccc(CN(C)CC(=O)Nc2sc3c(c2C#N)CCC3)c(OC)c1	44	0	-3	21	.	-19	i	63	eIF4H inh retest=24;PABP polyA inh retest=33
CCc1nnc(NC(=O)CSc2nnc(COc3ccccc3C)o2)s1	-4	-3	2	-155	-33	-13	i	-5
C=Cc1ccc(Cn2c(C)c(C(=O)NCCC#N)sc2=O)cc1	.	6	2	9	-16	.	.	.
Cc1cccc(N2CC(=O)N(c3cccc(C)c3)CC2=O)c1	3	1	1	-4	.	-1	i	-2
CN(CC(=O)Nc1ccc(F)cc1)C(=O)c1ccccc1OCc1ccc(F)cc1	6	-3	0	20	1	-2	i	-14
CC1(C)NC(=O)N(CC(=O)OCC(=O)N2CCN(S(=O)(=O)c3ccccc3)CC2)C1=O	.	0	-4	-7	-24	.	.	.
c1ccc2c(-c3nnc(SCc4cn5ccccc5n4)o3)c[nH]c2c1	7	1	4	.	-16	4	i	7
C[C@H](CO)N1C[C@H](C)[C@@H](CN(C)CC2CCCCC2)Oc2ccc(NS(C)(=O)=O)cc2C1=O	.	2	4	21	-14&13	-4	.	.
COc1ccccc1CNC(=O)CNC(=O)Cn1cnc2ccccc2c1=O	-7	-3	-1	.	-2	-13	i	-8

Quoted at random: 6 records from the list, in no set order.
SMILES	eIF4H inh	MT1-MMP act inh	MT1-MMP act inh RFP	HIV Env fusion	Yeast UUG start	CSC inhib	Rce1 inh	PABP polyA inh	others
c1ccc2c(-c3nnc(SCc4cn5ccccc5n4)o3)c[nH]c2c1	7	1	4	.	-16	4	i	7
C[C@H](CO)N1C[C@H](C)[C@@H](CN(C)CC2CCCCC2)Oc2ccc(NS(C)(=O)=O)cc2C1=O	.	2	4	21	-14&13	-4	.	.
CCOc1ccccc1N1CCN(Cc2ccc(OC)c(OC)c2)CC1	-2	-2	3	17	3	7	.	-1
CN(CC(=O)Nc1ccc(F)cc1)C(=O)c1ccccc1OCc1ccc(F)cc1	6	-3	0	20	1	-2	i	-14
COc1ccc(CN(C)CC(=O)Nc2sc3c(c2C#N)CCC3)c(OC)c1	44	0	-3	21	.	-19	i	63	eIF4H inh retest=24;PABP polyA inh retest=33
CCc1nnc(NC(=O)CSc2nnc(COc3ccccc3C)o2)s1	-4	-3	2	-155	-33	-13	i	-5

Later entries:
SMILES	eIF4H inh	MT1-MMP act inh	MT1-MMP act inh RFP	HIV Env fusion	Yeast UUG start	CSC inhib	Rce1 inh	PABP polyA inh	others
Cn1ncc([N+](=O)[O-])c1C(=O)Nc1ccc(C2CCCCC2)cc1	-4	-1	-4	1	.	-3	i	4
O=C(Oc1ccccc1Cl)C1CCN(C(=O)c2ccc(F)cc2)CC1	.	2	1	-11	11	-3	i	.
C=CCNC(=O)c1onc(CCl)c1C(=O)OC	-3	3	3	11	-15	-5	i	7
O=C1CNC(=O)/C1=C/c1ccccc1	4	2	-1	6	0	-21	i	14
O=C(Nc1cccc2cccnc12)c1ccc2c(c1)OCCO2	7	3	-3	-152	-12	-8	i	-9
COCCN(C(=O)COC(=O)CCOc1cc(C)ccc1C)c1c(N)n(Cc2ccccc2)c(=O)[nH]c1=O	.	0	-3	-18	-8	.	.	.
O=C(CN1C(=O)NC2(CCCCCC2)C1=O)Nc1ccc(Cl)cc1Cl	.	1	5	6	8	-13	.	.
CC(C)CNC(=O)C(=O)NNC(=O)C1CCCCC1	-16	3	7	.	-7	-5	i	-3
CC(C)Nc1nnc(SC(C)C(=O)N(C)C2CCCCC2)s1 (configuration not stated)	.	1	2	7	.	-17	i	.
CS(=O)(=O)Nc1cccc(C2=NN(S(=O)(=O)c3ccc(F)cc3)C(c3cccs3)C2)c1 (configuration not stated)	-5	-12	-1	28	.	1	i	14
O=C(Nc1ccccc1C(=O)O)c1ccc(Cl)c(S(=O)(=O)N2CCOCC2)c1	-3	2	5	.	7	-5	i	3
CC(C)C[C@@H](CN1CCC[C@@H]1CN1C(=S)NC[C@@H]1Cc1ccc(O)cc1)N1C[C@H](Cc2ccc(O)cc2)N(CCc2ccccc2)C1=S	.	0	-2	-60	-15	.	.	.
O=C(c1cc(COc2cccc3cnccc23)on1)N1CCCC(CCCO)C1 (configuration not stated)	-8	30	-33	57*	-18	10	i	-5
N#CC1=C2N=C(N)c3ccccc3N2C2=C(C(=O)CCC2)C1c1ccccc1F (configuration not stated)	?	-11	1	-9	-7	-6	i	?
C/C(CC(=O)Nc1cc(C)ccn1)=N\NC(=O)C(=O)NC(C)C	35	1	5	3	.	-2	i	1
Cc1cc(C)n2nc(C(=O)NC(c3ccccc3)c3ccccc3)nc2n1	-2	-1	0	0	.	-8	i	0
Cn1cc(CNCc2cn(C)nc2-c2ccc(C3CCCCC3)cc2)cn1	-1	-4	-2	-19	.	.	i	0
CCN(CC)CCNC(=O)Cc1nn(Cc2ccccc2)c(=O)c2ccccc12	-5	-2	0	11	-18	2	i	-9
Cc1ccc(C)c(N2CCN(C(=O)CCc3nc4ccccc4[nH]3)CC2)c1	-9	-3	-4	.	6	0	i	-1
C=CCc1ccccc1OCC(O)CN1CCN(C(=O)OCC)CC1 (configuration not stated)	0	0	1	.	.	-12	i	4
Cc1cccc(Nc2nnc(SCC3CCCCO3)s2)c1 (configuration not stated)	-8	2	-2	-43	.	7	i	8
CSc1nnc2c(n1)OC1(Nc3ccccc3-2)C(=O)Nc2ccccc21 (configuration not stated)	-7	-3	7	-7	.	.	i	4
CCOCC(=O)Nc1nnc(COCC)s1	5	-6	1	.	-6	-8	i	2
CC(=O)N1c2ccc(S(=O)(=O)N3CCCCC3)cc2CC1C(=O)Nc1cccc(C)c1 (configuration not stated)	-10	3	-2	-5	1	-8	i	9
CCC(C)N1CCN(C(=O)c2cc(OC)cc(OC)c2)CC1 (configuration not stated)	3	-3	-2	-1	-12	-17	i	4
O=C(CCCNS(=O)(=O)c1ccc(Cl)c(Cl)c1)NCCc1ccccn1	-5	0	2	13	-8	-20	i	-3
COc1cc(S(=O)(=O)N2CCC(N3CCCCC3)CC2)ccc1-n1cnnn1	8	-3	0	.	16	.	i	-6
COc1ccc(NS(=O)(=O)c2ccc(O)c(C(=O)OCC(=O)Nc3ccc4c(c3)OCCO4)c2)cc1	9	-1	3	3	-14	1	i	3
CC(C)OC(=O)CSc1nnc(CNc2cccc(Cl)c2)n1C	4	-4	1	9	-6	4	i	1
CCOc1ccc(C2C([N+](=O)[O-])=C(C)N(C)C(=O)N2C)cc1OC (configuration not stated)	-16	1	1	5	.	-15	i	0
N/C(=N\OC(=O)c1ccc(Cl)c([N+](=O)[O-])c1)c1ccccn1	-8	-7	0	-25	.	20	i	-8
C=CCn1c(COc2ccccc2)nnc1SCC(=O)N/N=C/c1cc(Cl)ccc1O	-3	4	4	.	-7	21	i	15
